# StopGo reporter: High Throughput Screening for Foot and Mouth Disease Virus Antivirals; human cells with a luciferase reporter of 2A StopGo recoding; control for the full effect not named in the record; 410,000 tested, 1.2% active; Potency, µM (doses to about 57.9 µM), for the others: at the highest dose signal change, negative = less light; active = well fitted falling curve with a large enough effect; inconclusive = small, poorly fitted or top-dose-only effect; inactive = no such curve, though single readings can be large or run the other way; tested in HEK293T cells; also: % is scaled to controls: 0 for no effect and ±100 for the full control effect; nearly all actives have a fitted effect of over 45% in size; luciferase light after 4 h
# Cruzain inh noDet: qHTS Assay for Promiscuous and Specific Inhibitors of Cruzain (without detergent). Cruzipain (Trypanosoma cruzi), P25779. purified cruzain, Z-FR-AMC fluorescence, no detergent. Potency, µM, for inactives: max response, negative = inhibition, hits mostly inhibitors. 200,000 tested, 2.3% active. AID 1476, 2009;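 also: plate controls were enzyme without inhibitor for no effect and buffer without enzyme for full effect; nearly all actives have a fitted effect of over 40% in size; top concentration of the series not given in the record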
# Target sequence (P25779 123-467 limits assumed): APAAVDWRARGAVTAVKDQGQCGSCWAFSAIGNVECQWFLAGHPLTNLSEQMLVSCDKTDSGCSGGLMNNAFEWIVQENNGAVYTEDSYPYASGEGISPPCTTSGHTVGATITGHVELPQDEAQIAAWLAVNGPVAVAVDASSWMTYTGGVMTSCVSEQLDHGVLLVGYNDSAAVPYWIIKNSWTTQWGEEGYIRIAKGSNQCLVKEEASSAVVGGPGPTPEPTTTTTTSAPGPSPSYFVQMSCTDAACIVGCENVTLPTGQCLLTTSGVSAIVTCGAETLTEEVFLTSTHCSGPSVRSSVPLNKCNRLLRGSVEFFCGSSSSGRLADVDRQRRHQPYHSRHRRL
#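 Detergent-free condition (0.00005% Triton X-100) in acetate buffer pH 5.5 with DTT. 1.5 nM enzyme and compound were pre-mixed 15 min, then 2 uM Z-FR-AMC substrate added; reaction progress from fluorescence change between first and third reads (60 s).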
# MARV entry inh: qHTS for inhibitors of binding or entry into cells for Marburg Virus; 300,000 tested, 1.8% active; Potency, µM (series often up to 37.8 µM), for the others: at the top dose activity change, negative = inhibition, most hits filed as inhibitors; Marburg virus pseudotyped entry inhibition, cell reporter; control for the full effect not named in the record; about a third of the inactives were read at about 46 µM; active = well fitted inhibition curve with a large enough effect; inconclusive = small, poorly fitted or top-dose-only effect, or effect the other way; inactive = flat fitted curve, though single readings scatter; tested in HEK293 cells; about a fifth of its hits are not listed in these tables; also: % is scaled to controls: 0 for no effect and ±100 for the full control effect; luciferase read-out
# Cruzain Triton: qHTS Assay for Promiscuous and Specific Inhibitors of Cruzain (with detergent); Cruzipain (Trypanosoma cruzi), P25779; purified cruzain, Z-FR-AMC fluorescence, 0.01% Triton; Potency, µM, for the others: max response, negative = inhibition, usual class: inhibitors; 200,000 tested, 0.43% active;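 also: plate controls were neutral wells for no effect and buffer without enzyme for full effect; nearly all actives have a fitted effect of over 40% in size; top concentration of the series not given in the record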
#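 Steps: dispense cruzain (1.5 nM final) in acetate buffer pH 5.5 with DTT and 0.01% Triton X-100; pin-transfer compounds; incubate 15 min RT; add Z-FR-AMC (2 uM final); read fluorescence every 30 s, using the 60 s intensity change.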
# SARS PLP yeast: qHTS of Yeast-based Assay for SARS-CoV PLP; 330,000 tested, 0.19% active; Potency, µM (highest dose often 32.9 µM), inactives show top-dose activity, positive = growth rescue; AID 485353, 2010; S. cerevisiae expressing SARS-CoV PLpro, growth rescue; control for the full effect not named in the record; active means well fitted rising curve with a large enough effect; inconclusive means small, poorly fitted or top-dose-only effect; inactive means no such curve, though single readings can be large or run the other way; also: 0% is about no effect; nearly all actives have a fitted effect of over 55% in size; growth read by luminescence after 48 h
# RE007 growth inh: qHTS Assay for Inhibitors of the HIV-1 protein Vpr. S. pombe RE007 Vpr strain, BacTiter-Glo ATP luminescence, 24 h; control for the full effect not named in the record. Potency, µM (highest dose often 92.2 µM), inactives show top-dose activity change, negative = less growth. 360,000 tested, 0.21% active. AID 651644, 2012; active = well fitted falling curve with a large enough effect; inconclusive = small, poorly fitted or top-dose-only effect; inactive = no such curve, though single readings can be large or run the other way;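 also: % is scaled to controls: 0 for no effect and ±100 for the full control effect; nearly all actives have a fitted effect of over 50% in size; the assay follows cell death caused by Vpr and the record does not say whether a fall means rescue or toxicity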
#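 Fission yeast RE007 carrying one integrated HIV-1 vpr copy, seeded at OD 0.01 in PMG+AL medium with 23 nL pinned compound. Grown 24 h at 30 degrees; viability read by BacTiter-Glo luminescence after 5 min.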
# NS1 function inh: qHTS Assay for Inhibitors of Influenza NS1 Protein Function; S. cerevisiae slowed by influenza A NS1, growth recovery by OD600; Potency, µM (highest dose often 46.1 µM), for the others: at the top dose activity, positive = more growth; 270,000 tested, 0.4% active; active means well fitted rising curve with a large enough effect; inconclusive means small, poorly fitted or top-dose-only effect; inactive means no such curve, though single readings can be large or run the other way; also: nearly all actives have a fitted effect of over 50% in size
#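 In this qHTS, NS1 from influenza A is expressed in budding yeast, where it slows growth. Cells are switched from glucose to 2% galactose medium (pH 6.0, -URA), treated with compound, and growth recovery is read at OD600.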
# LASV entry inh: qHTS for Inhibitors of binding or entry into cells for Lassa Virus. 300,000 tested, 1.2% active. AID 540256, 2011. Lassa virus pseudotype entry inhibition, cell reporter; control for the full effect not named in the record. Potency, µM (doses to about 37.9 µM), without a hit: top-dose activity change, negative = inhibition, most hits filed as inhibitors; active means well fitted inhibition curve with a large enough effect; inconclusive means small, poorly fitted or top-dose-only effect, or effect the other way; inactive means flat fitted curve, though single readings scatter; tested in HEK293 cells; also: % is scaled to controls: 0 for no effect and ±100 for the full control effect; nearly all actives have a fitted effect of over 50% in size; luciferase read-out
# Starred values were filed as active, the others as inactive; ? = inconclusive; · = not tested or not shown; [ ] = another dose, or the depositor's remark. Unless noted, calls follow the shape of the dose curve; as a rule, active = well fitted curve in the direction sought with a large enough effect; inconclusive = small, poorly fitted or top-dose-only effect, or another doubt; inactive = no such curve, though single readings can be large; an effect the other way counts as inactive or inconclusive. Potency is read from the fitted curve at half-maximal effect.
SMILES,StopGo reporter,Cruzain inh noDet,MARV entry inh,Cruzain Triton,SARS PLP yeast,RE007 growth inh,NS1 function inh,LASV entry inh
O=C1NC(=O)C2(COC(c3cccnc3)OC2)S1 (stereo not given),-19.7%,6.9%,-0.8%,-1.3%,-4.2%,9.9%,11.2%,8.4%
COc1cccc(/C=N/NC(=O)c2csc(-n3nc(C)cc3C(F)(F)F)n2)c1,7.3%,21.9%,-0.9%,-5.1%,-3.8%,12.7%,17.0%,-1.4%
Cc1onc(-c2c(F)cccc2Cl)c1C(=O)Nc1ccc(OC(C)C)cc1,-19.9%,27.4%,4.5%[46.1 µM],-10.6%,·,·,·,-25.8%[46.1 µM]
C[C@]1(C(=O)O)Cc2oncc2C[C@@H]1C(=O)O,-3.4%,-9.4%,-3.3%,0.4%,-6.2%,2.8%,19.5%,3.5%
Cc1ccc(NC(=O)NNC(=O)c2sccc2-n2cccc2)cc1,-5.6%,·,-1.5%[46.1 µM],·,-1.1%,31.1%,·,2.5%[46.1 µM]
Cc1ccc2nsnc2c1NC(=O)c1ccc([N+](=O)[O-])o1,-19.6%,·,-10.7%[46.1 µM],·,10.5%,-22.7%,-43.2%,-20.9%
Cc1cccc(NC(=O)Cn2nc(-c3ccc(Cl)cc3)c3ccccc3c2=O)c1,4.2%,-4.9%,-16.9%[46.1 µM],-0.7%,·,·,·,·
CC(=O)OC1N=C(c2ccccc2)c2cc(C)ccc2NC1=O (stereo not given),-14.2%,11.6%,?,4.0%,0.0%,6.7%,2.2%,2.2%
O=C(N/N=C/c1ccncc1)C1CC1C(=O)N/N=C/c1ccncc1 (stereo not given),-2.5%,-8.5%,-9.5%,4.1%,-14.9%,16.1%,7.1%,-18.9%
CCCc1cc(C(=O)Nc2cccc([N+](=O)[O-])c2)cs1,0.0%,·,·,·,-13.3%,-2.1%,-88.2%,·
CC(C)C(NS(=O)(=O)c1ccc2c(c1)oc(=O)n2C)C(=O)N1CCN(c2ccccc2F)CC1 (stereo not given),-17.4%,-8.3%,-2.0%,-4.9%,14.1%,-1.6%,4.1%,·
CCCNC(=O)Cn1cnc([N+](=O)[O-])n1,-14.8%,13.1%,?,0.0%,-22.1%,13.1%,11.4%,5.0%
CCC(Sc1nc2n[nH]c(C)c2c(=N)n1-c1cc(Cl)ccc1C)C(=O)N1CCOCC1 (stereo not given),-26.4%,?,?,-5.1%,?,23.7%,-5.1%,-5.7%
Cc1ccc(C)c(SCC(=O)Nc2ccc(S(=O)(=O)Nc3ncccn3)cc2)c1,-3.9%,·,4.4%[46.1 µM],·,0.3%,-6.2%,-3.5%,16.7%
COc1cccc(N/N=C/c2cccc(Br)c2O)c1,23.0%,·,11.2µM*,·,-2.3%,3.8%,3.8%,0.1%
Cc1c(Cl)cccc1NC(=S)NCC(O)c1ccccc1 (stereo not given),38.4%[activator],·,-1.9%,·,13.8%,-2.5%,4.5%,24.4%
Cc1ccc(-c2nc(-c3ccccn3)no2)cc1,2.82µM*,-0.7%,1.12µM*,3.2%,-18.2%,15.8µM*,-47.7%,0.316µM*
COc1ccc(CNC(=O)C2CCN(C(=O)c3sccc3-n3cccc3)CC2)cc1,7.9%,·,·,·,5.6%,-9.6%,0.0%,·
CCOC(=O)N1CCC(NC(=O)C2CCN(S(=O)(=O)N3CCC(C)CC3)CC2)CC1,?,6.7%,-12.6%,2.0%,2.2%,12.5%,-12.3%,-0.3%
CC(C)(C)c1ccc(C(=O)Nc2ccccc2NC(=O)c2ccco2)cc1,-18.5%,17.0%,?,-11.7%,-38.6%,-0.6%,-0.2%,?
Cc1ccc(NC(=O)c2cc(S(=O)(=O)NCCc3ccc(Cl)cc3)ccc2F)cc1,20.5%,6.9%,·,-0.5%,·,·,·,-7.0%[46.1 µM]
O=C(COC(=O)c1cccc(Cl)c1)NCCN1C(=O)CSC1=O,-4.3%,-2.7%,-4.0%,-2.2%,-2.8%,3.6%,12.6%,1.3%
O=C(CN1C(=O)NC2(CCCCCC2)C1=O)NCc1ccc(F)cc1,0.3%,·,?,·,2.0%,11.0%,·,?
COc1ccc(CNc2ccc3c(c2)ncn3C)cc1OC,27.6%,·,?,·,5.2%,0.0%,-5.6%,-12.5%[46.1 µM]
O=C(Cn1nnc2ccccc21)NC1CCCCC1,-6.5%,-3.9%,4.3%,-2.9%,-2.7%,1.3%,-5.9%,-1.8%
Cc1ccc(OCC(=O)N2CCN(S(C)(=O)=O)CC2)cc1,-14.8%,·,5.0%[46.1 µM],·,1.1%,1.8%,0.8%,12.8%[46.1 µM]
O=S(=O)(Nc1cccc(-n2cnnn2)c1)c1ccc(Cl)nc1,1.5%,·,·,·,2.0%,-13.5%,-1.5%,·
CCc1cccc(CC)c1NC(=O)COC(=O)CC1c2ccccc2CCN1S(=O)(=O)c1ccc(F)cc1 (stereo not given),-18.6%,-8.5%,?,-3.2%,2.9%,-13.9%,26.8%,-16.2%
Cc1ccc(NC(=O)CCC(=O)N/N=C/c2cccnc2)cc1,-1.9%,·,9.6%[46.1 µM],·,-1.1%,6.5%,-0.9%,0.6%
CCOc1ccc(-n2c(SCC(=O)Nc3ccccc3OC)nc3c(oc4ccccc43)c2=O)cc1,0.0%,0.1%,?,0.1%,·,·,·,-5.0%[46.1 µM]
Cc1ccc(C2=N/C(=C/c3cccs3)C(=O)N2Nc2ccccc2)cc1,-6.6%,25.1µM*,?,0.8%,-13.5%,3.6%,2.2%,-20.3%
CCc1cc(=O)oc2cc(C)cc(OCC(=O)NC(Cc3c[nH]c4ccc(O)cc34)C(=O)O)c12 (stereo not given),-18.3%,·,·,·,1.1%,-7.0%,14.0%,·
Cc1ccc(Oc2ccc(S(=O)(=O)N3CCOCC3)cc2C(N)=O)cc1C,-20.9%,·,6.4%,·,1.9%,-3.7%,7.2%,?
COc1ccc(OC)c(NS(=O)(=O)c2c(C)nc3sccn3c2=O)c1,15.7%,·,·,·,-7.1%,-14.0%,-17.3%,·
COc1ccc(CCNC(=O)c2c[nH]c3ccccc3c2=O)cc1OC,-18.8%,11.3%,?,0.0%,1.7%,10.9%,-3.0%,-27.1%
CCc1ccc(NC(=O)Cn2c(=O)n(CCCCC(=O)NCc3ccc4c(c3)OCO4)c(=O)c3ccccc32)cc1,-27.6%,-7.6%,4.7%[46.1 µM],-4.2%,·,·,·,-3.5%[46.1 µM]
CC(=O)OCC(=O)[C@@]1(O)CC[C@H]2[C@@H]3CCC4=CC(=O)C=C[C@]4(C)[C@H]3C(=O)C[C@@]21C,-8.9%,·,·,·,-1.2%,-9.6%,1.8%,·
O=C(COc1ccc(F)cc1)OCCN1CCOCC1,-6.9%,-2.5%,?,8.7%,-0.2%,26.9%,-1.8%,3.2%
CC(C)NC(=O)C1=NN(c2ccccc2)C(=O)CC1,16.3%,·,11.8%,·,0.0%,0.8%,7.9%,?
Cc1cccc(C)c1Nc1nnc(SC(C)C(=O)Nc2c(C)n(C)n(-c3ccccc3)c2=O)s1 (stereo not given),-18.0%,0.5%,-29.7%,-7.3%,1.7%,-3.1%,-0.9%,-6.4%
COc1ccc(OC)c(NC(=O)CN(C)S(=O)(=O)c2ccc3nc(C)sc3c2)c1,0.0%,?,1.6%,-6.7%,-19.3%,-17.7%,-12.9%,-13.3%
O=C(COc1cc(Cl)c(Cl)cc1Cl)NCCN1CCOCC1,-30.8%,-5.5%,-12.8%,-26.5%,3.7%,11.7%,1.7%,-11.5%
CCOC(=O)C1CCCCN1Cc1ccccc1C(F)(F)F (stereo not given),-4.0%,14.0%,11.5%,2.4%,0.5%,-4.5%,4.0%,17.9%[14.3 µM]
O=[N+]([O-])c1cccc(N(CC2CO2)S(=O)(=O)c2ccccc2)c1 (stereo not given),0.0%,·,-19.1%[46.1 µM],·,-0.5%,-6.2%,5.6%,2.3%
COc1ccccc1NC(=O)c1oc2ccccc2c1NC(=O)COc1ccccc1OC,2.0%,-8.0%,5.1%[46.1 µM],0.3%,·,·,·,?
Cc1cccc(-n2c(SCN3C(=O)c4ccccc4C3=O)nc3ccccc3c2=O)c1,·,?,·,-4.3%,-5.4%,·,13.4%,·
Cc1ccccc1NC(=O)CSc1nnc2ccc(-c3cccnc3)nn12,-10.7%,·,-3.7%[46.1 µM],·,-6.4%,-0.6%,·,17.6%
NC(=O)c1ccccc1[N+](=O)[O-],-25.0%,-5.0%,·,5.1%,5.1%,-7.6%,·,·
CC(=O)c1ccc(O)c(CSC2=NCCS2)c1,?,·,27.1%[46.1 µM],·,-1.5%,5.3%,·,-1.8%
COc1ccc(S(=O)(=O)c2c(O)c(C)cc(NS(=O)(=O)c3ccc(Cl)cc3)c2C(C)C)cc1,-15.7%,?,?,-0.9%,·,·,·,-13.0%[46.1 µM]
CC(C)C(OC(=O)c1cccs1)C(=O)NCc1ccc(F)cc1 (stereo not given),1.8%,·,-4.2%[46.1 µM],·,-4.4%,-3.2%,-11.6%,-4.0%[46.1 µM]
C#C[C@]1(O)CCC2C3CCC4=C/C(=N/OCC(=O)NC(C)C(=O)NC(CCSC)C(=O)O)CC[C@]4(C)C3CC[C@@]21C (stereo not given in full),-6.5%,·,·,·,0.5%,3.5%,-0.6%,·
O=C(N/N=C/c1ccc[nH]1)c1cccc([N+](=O)[O-])c1,11.1%,10.7%,3.6%,-0.6%,-3.9%,5.3%,5.2%,?
COC(=O)c1[nH]c(=O)c2ccccc2c1OCc1ccccc1,-22.4%,6.4%,-32.9%,1.0%,-12.0%,15.5%,-10.1%,-1.1%
O=C(Cn1ncc2c([nH]c3ccccc32)c1=O)NCCc1ccccc1,-19.6%,·,·,·,-1.0%,8.9%,-12.3%,·
